TRPML1 blocker – human mucolipin-1 channel inhibition; TRPML1-inducible cells, Ca2+ dye fluorescence, FDSS; active compounds read low; inhibition of EC80 agonist-evoked calcium signal; Q9GZU1; 390,000 tested, 0.02% active; AID 624415; activity change, negative = inhibition, % (no concentration beside the values); in the data active means activity change below about -50%; inconclusive means about -30% to -50%; inactive means above about -30%;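 further: stimulus is agonist 54-4 at its EC80 concentration; on the % scale 0 is the no-effect control and ±100 the full control effect; compound concentration not given in the record; the text of the record puts the active cut at -80%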
Target sequence (Q9GZU1 whole entry, looked up): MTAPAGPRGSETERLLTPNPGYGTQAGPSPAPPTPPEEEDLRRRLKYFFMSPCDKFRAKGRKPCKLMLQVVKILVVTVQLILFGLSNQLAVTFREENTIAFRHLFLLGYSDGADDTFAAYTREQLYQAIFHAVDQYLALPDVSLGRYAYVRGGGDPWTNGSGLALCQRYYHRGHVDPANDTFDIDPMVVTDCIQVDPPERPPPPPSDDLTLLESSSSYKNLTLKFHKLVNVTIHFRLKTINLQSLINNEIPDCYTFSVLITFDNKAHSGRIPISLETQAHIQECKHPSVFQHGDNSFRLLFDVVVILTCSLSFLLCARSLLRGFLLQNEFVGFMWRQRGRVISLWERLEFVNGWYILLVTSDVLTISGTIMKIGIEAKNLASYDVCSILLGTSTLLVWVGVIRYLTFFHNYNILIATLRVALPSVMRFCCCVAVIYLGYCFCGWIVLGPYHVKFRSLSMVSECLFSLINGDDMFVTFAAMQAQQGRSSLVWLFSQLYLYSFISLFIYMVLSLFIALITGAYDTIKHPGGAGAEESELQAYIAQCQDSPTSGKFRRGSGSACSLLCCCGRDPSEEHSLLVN
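Calcium fluorescence in TRPML1-DL cells induced overnight with Tet: a 110 s read after compound pin addition, then a 110 s antagonist read after challenge with 54-4 at 4 uM final (EC80).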
Menin MLL FP FL – displaces fluorescein MLL peptide from human menin; FP activity change, % at 61.4 µM; 290,000 tested, under 10 active; Fluorescence polarization, fluorescein-MLL peptide displacement from menin; inconclusive = falling polarisation curve, or a change in total fluorescence; inactive = total fluorescence flat and polarisation flat or rising; no compound was filed as active; the % refers to the polarisation; negative = inhibition;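 further: % of control where 0% means no effect; inhibitors lower the polarisation; unlabelled MLL peptide was the positive control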
TRPML1 agonist – human mucolipin-1 channel agonism; Q9GZU1; TRPML1-expressing cells, Ca2+ dye fluorescence, FDSS; host cell line not named in the record; reference of the full effect not given here; activation, % (test concentration not listed); 410,000 tested, 0.12% active; AID 624414; in the data active = activation above about 50%; inconclusive = about 30% to 50%; inactive = below about 30%; further: 0% is about no effect; the text of the record puts the active cut at 80%
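Kinetic FDSS Ca2+ read in Tet-induced TRPML1-DL cells (ABD Ca8 dye plus quencher, 45-90 min RT loading): baseline, then compound, then 110 s agonist window; EC80 agonist 54-4 at 4uM final added afterwards for a 110 s antagonist window.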
gsp ag – agonists of gsp mutant (McCune-Albright syndrome) | Potency, µM (top dose mostly 76.9 µM), without a hit: top-dose activation (cAMP increase), hits mostly activators | gsp mutant cells, cAMP HTRF, 30 min; control for the full effect not named in the record | 340,000 tested, 0.13% active | AID 624287; active = well fitted activation curve with a large enough effect; inconclusive = small, poorly fitted or top-dose-only effect, or another doubt; inactive = no such curve, though single readings can be large or run the other way; cell line not stated here;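 further: phosphodiesterase inhibitor Ro 20-1724 added with compounds to block cAMP breakdown; potency means the concentration at half of the fitted maximal effect; nearly all actives have a fitted effect of over 60% in size; about a fifth of the inactives were tested at one dose only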
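Cells stably selected in G418 were plated at 2000/well, grown 16-24 hr, then given compounds in DMSO with the PDE inhibitor […] (300 uM solution added) for 30 min at 37C; cAMP was read by HTRF.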
gsp antagonist – gsp mutant antagonism; gsp-mutant cells, cAMP HTRF, 30 min; control for the full effect not named in the record; Potency, µM (doses to about 76.9 µM), for the others: top-dose activity change, negative = inhibition, most hits filed as inhibitors; 340,000 tested, 0.4% active; active = falling curve of any shape with a large fitted effect; inconclusive = falling curve, mostly with a smaller effect; inactive = flat or rising curve; cell line not stated here;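 further: intracellular cAMP measured with PDE inhibitor Ro 20-1724 present during compound exposure; potency means the concentration at half of the fitted maximal effect; on the % scale 0 is the no-effect control and ±100 the full control effect; nearly all actives have a fitted effect of over 65% in size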
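Cells, 2000/well, grown 16–24 h in DMEM 10% FBS with 0.5 mg/ml G418, then compounds plus […] (300 uM addition stock), 30 min at 37C. cAMP read by HTRF (cAMP-d2 and anti-cAMP antibody-K in lysis buffer) after 30 min RT.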
ClpP mod – qHTS Assay for Activators of ClpP; 340,000 tested, 1.9% active; purified B. subtilis ClpP, FRET peptide cleavage, 20 min; Potency, µM (highest dose often 57.5 µM), inactives show top-dose activity change, negative = active; active = well fitted falling curve with a large enough effect; inconclusive = small, poorly fitted or top-dose-only effect; inactive = no such curve, though single readings can be large or run the other way; further: potency means the concentration at half of the fitted maximal effect; the source files actives as falling curves though it sought activators and does not explain the sign; nearly all actives have a fitted effect of over 65% in size; many hits overshoot -100%
Target sequence (P80244 whole entry, looked up): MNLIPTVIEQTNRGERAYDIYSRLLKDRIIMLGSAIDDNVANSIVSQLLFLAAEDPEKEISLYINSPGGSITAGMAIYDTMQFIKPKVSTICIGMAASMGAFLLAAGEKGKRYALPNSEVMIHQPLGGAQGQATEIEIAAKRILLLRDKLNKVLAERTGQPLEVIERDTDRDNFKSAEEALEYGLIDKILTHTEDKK
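Buffer: 100 mM Tris/HCl pH8, 100 mM KCl, 0.05% low protease BSA, 2.5% glycerol, 0.01% Tween-20. ClpP 10 microg/mL final; 20 min RT; delta FRET normalized to ADEP and DMSO controls.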
An asterisk follows results filed as active; ? = inconclusive; . = not tested or not shown; & = joins results of further samples; [ ] = remark or other dose.

1. CCCCCOc1ccccc1Cn1c(=O)oc2ccc(C)cc21
2. CCN(CC)CCC(c1ccc2c(c1)OCO2)c1c(O)cc(OC)cc1OC (stereo unspecified)
3. COc1ccccc1C1=NN(C(=S)Nc2ccccc2)C(c2ccco2)C1 (stereo unspecified)
4. CCn1cc(C(=O)NCCc2ccccc2C)c(=O)c2ccc(C)nc21
5. Cc1cc(N2CCCC2)ccc1/C=N/n1cnnc1
6. CS(=O)(=O)N1c2ccccc2[C@]2(Br)C[C@H]3C(=O)N[C@@H](Cc4ccccc4)C(=O)N3[C@H]12
screen / no. | 1 | 2 | 3 | 4 | 5 | 6
TRPML1 blocker | 4 | 40&-7 | 29 | 2 | 9 | -2
Menin MLL FP FL | . | 4.4&7.6 | 11 | 2.7 | 10 | .
TRPML1 agonist | 4.1 | 1.8&-0.3 | -1.4 | 0.9 | 0.1 | -0.4
gsp ag | . | . | -4% | 25% | 2% | -23%
gsp antagonist | . | 9% | -9% | 5% | -13% | -1%
ClpP mod | -2.8% | 1.4% | 0.7% | -1.3% | -23% | -1.6%

7. Cc1ccc2cc(/C=N/NC(=O)CN3CCCCC3)c(Cl)nc2c1
8. CCn1c(-c2ccsc2)nc2c1c(=O)[nH]c(=O)n2Cc1ccccc1
9. Nc1ccc(C(=O)N2CCN(S(=O)(=O)c3ccc(Cl)s3)CC2)cc1[N+](=O)[O-]
10. O=C(Nc1cccc2ccccc12)C12CC3CC(C1)CC(n1cnc([N+](=O)[O-])n1)(C3)C2
11. COc1ccc(CN(C)c2ncnc(N)n2)cc1
12. COc1ccc(C(=O)Nc2ccccc2)cc1S(=O)(=O)Nc1ccc(Br)cc1
screen / no. | 7 | 8 | 9 | 10 | 11 | 12
TRPML1 blocker | 4 | -15 | -5 | -2 | 15 | 8
Menin MLL FP FL | 2.6 | 4.7 | . | 7.1 | 3.0 | .
TRPML1 agonist | 0.7 | 0.9 | 1.0 | 0.9 | -1.1 | 2.3
gsp ag | -3%[15.4 µM] | 9% | -17%[15.4 µM] | 7% | -20% | .
gsp antagonist | 16% | 10% | -31% | -12% | -12% | .
ClpP mod | . | -24% | -12% | -2.4% | -3.4% | 15%

13. COc1cccc(-c2nn(C)c3sc(C(=O)N4CCN(c5ccccn5)CC4)cc23)c1
14. CCN(C(=O)c1sc2nc3n(c(=O)c2c1C)CCCCC3)c1ccc(OC)cc1
15. Cc1ccc(S(=O)(=O)N2CCC(C(=O)N3CCC[C@H]3C(=O)NCc3ccccc3)CC2)cc1
16. CCN(CC)C(=O)Cn1cc(S(=O)(=O)CC(=O)N2CCOCC2)c2ccccc21
17. CCOC(=O)C1CCN(Cc2oc(CO)cc(=O)c2O)CC1
18. CCCCN(C(=O)CC(c1ccccc1)c1ccccc1)c1c(N)n(CCC)c(=O)[nH]c1=O
screen / no. | 13 | 14 | 15 | 16 | 17 | 18
TRPML1 blocker | -10 | 7 | -3 | -10 | 19 | -15
Menin MLL FP FL | 4.2 | . | 3.5 | . | 2.4 | 4.5
TRPML1 agonist | 0.2 | -0.4 | -0.8 | 0.5 | 2.1 | -0.5
gsp ag | -15% | . | -3% | 18%[15.4 µM] | -1%[15.4 µM] | 8%[15.4 µM]
gsp antagonist | -14% | . | -5% | 11% | 14% | -9%
ClpP mod | -15% | -0.3% | 0.0% | -3.3% | 0.9% | -6.5%

19. CNS(=O)(=O)c1cc(O)c2c(S(=O)(=O)NC)cccc2c1
20. Cc1ccc(S(=O)(=O)/C(C#N)=C/c2c(N3CCN(C)CC3)nc3c(C)cccn3c2=O)cc1
21. COC(=O)Cn1c(=NC(=O)c2nc3ccccc3s2)sc2cc(S(N)(=O)=O)ccc21
22. O=C(O)CCN1C(=O)c2ccc(NC(=O)CSc3ccccc3)cc2C1=O
23. CC(C)N(Cc1ccccc1)S(=O)(=O)c1ccc(N2CCCCS2(=O)=O)cc1
24. COc1ccc(-n2c(SCC(=O)NCC3CCCO3)nc3c([nH]c4ccccc43)c2=O)cc1OC (stereo unspecified)
screen / no. | 19 | 20 | 21 | 22 | 23 | 24
TRPML1 blocker | 10 | 20 | -11 | 11 | -10 | -12
Menin MLL FP FL | 0.2 | ? | 4.3 | 0.1 | . | 0.5
TRPML1 agonist | -0.5 | 2.5 | -0.2 | -0.1 | -0.9 | 1.0
gsp ag | ? | ? | -2%[15.4 µM] | 4% | . | -43%[inhibitor]
gsp antagonist | -12% | -7% | 8% | -5% | . | -7%
ClpP mod | -0.4% | -20% | 22µM* | 1.1% | 1.8% | -20%

Additional results
Field names: A = TRPML1 blocker; B = Menin MLL FP FL; C = TRPML1 agonist; D = gsp ag; E = gsp antagonist; F = ClpP mod
25) CC(c1ccccc1)N1CC(C(=O)N2CCN(c3ccc(F)cc3)CC2)CC1=O (stereo unspecified)
  A: 17	B: -1.4	C: 0.4	D: ?	E: 5%	F: -2.9%
26) CCc1ccc(CN(C)C(=O)C2CCC(=O)N(Cc3cccc(OC)c3)C2)nc1 (stereo unspecified)
  A: 1	B: -0.8	C: 4.8	D: -11%	E: 7%	F: -7.4%
27) O=C(NCc1cccnc1)/C(=C/c1ccccc1)NC(=O)c1ccccc1
  A: 0	B: -5.0	C: 0.4	D: 1%[15.4 µM]	E: 12%	F: .
28) COc1ccc(CN2CCNC(=O)C2CC(=O)NC2CCC2)c(OC)c1 (stereo unspecified)
  A: 12	B: .	C: 0.2	D: 4%	E: 4%	F: -7.4%
29) c1ccc(-c2nnc(-c3c[nH]c4ccccc34)nc2-c2ccccc2)cc1
  A: 55	B: 2.5	C: 1.6	D: 0%	E: -13%[15.4 µM]	F: -1.6%
30) CCCNC(=O)c1nc(C)c(C)nc1C(=O)Nc1cccc(Cl)c1
  A: 18	B: 10	C: -0.5	D: -4%	E: 0%	F: -4.6%
31) Cc1nn(C(C)C(=O)NC2CCCCC2)c(=O)c2nn(-c3ccccc3)c(C)c12 (stereo unspecified)
  A: 7	B: .	C: 1.0	D: -3%	E: -16%	F: 0.1%
32) CCc1cc2c(=O)c(-c3nc4ccccc4n3C)coc2c(CN2CCN(C)CC2)c1O
  A: 23	B: 8.8	C: 0.3	D: 0%	E: -7%	F: -14%
33) CCC(=O)N(Cc1ccco1)Cc1cc2cc3c(cc2[nH]c1=O)OCO3
  A: 3	B: -2.9	C: -0.9	D: 0%[15.4 µM]	E: 4%	F: 0.4%
34) CC(C)(C)N/C=C(\C#N)S(=O)(=O)c1ccc(Br)cc1
  A: -5	B: 5.0	C: -0.6	D: 4%[15.4 µM]	E: 2%	F: -2.1%
35) CC1(C)CC(=O)C=C(NCc2ccccc2)C1
  A: -13	B: -0.4	C: 0.3	D: 5%	E: 8%	F: -2.3%

Of the compounds above, these contain a Cl atom.
Field names: A = TRPML1 blocker; B = Menin MLL FP FL; C = TRPML1 agonist; D = gsp ag; E = gsp antagonist; F = ClpP mod
7) Cc1ccc2cc(/C=N/NC(=O)CN3CCCCC3)c(Cl)nc2c1
  A: 4	B: 2.6	C: 0.7	D: -3%[15.4 µM]	E: 16%	F: .
9) Nc1ccc(C(=O)N2CCN(S(=O)(=O)c3ccc(Cl)s3)CC2)cc1[N+](=O)[O-]
  A: -5	B: .	C: 1.0	D: -17%[15.4 µM]	E: -31%	F: -12%
30) CCCNC(=O)c1nc(C)c(C)nc1C(=O)Nc1cccc(Cl)c1
  A: 18	B: 10	C: -0.5	D: -4%	E: 0%	F: -4.6%

Sorted by molar mass (ascending): 7 of the compounds above.
Field names: A = TRPML1 blocker; B = Menin MLL FP FL; C = TRPML1 agonist; D = gsp ag; E = gsp antagonist; F = ClpP mod
34) CC(C)(C)N/C=C(\C#N)S(=O)(=O)c1ccc(Br)cc1
  A: -5	B: 5.0	C: -0.6	D: 4%[15.4 µM]	E: 2%	F: -2.1%
30) CCCNC(=O)c1nc(C)c(C)nc1C(=O)Nc1cccc(Cl)c1
  A: 18	B: 10	C: -0.5	D: -4%	E: 0%	F: -4.6%
33) CCC(=O)N(Cc1ccco1)Cc1cc2cc3c(cc2[nH]c1=O)OCO3
  A: 3	B: -2.9	C: -0.9	D: 0%[15.4 µM]	E: 4%	F: 0.4%
27) O=C(NCc1cccnc1)/C(=C/c1ccccc1)NC(=O)c1ccccc1
  A: 0	B: -5.0	C: 0.4	D: 1%[15.4 µM]	E: 12%	F: .
25) CC(c1ccccc1)N1CC(C(=O)N2CCN(c3ccc(F)cc3)CC2)CC1=O (stereo unspecified)
  A: 17	B: -1.4	C: 0.4	D: ?	E: 5%	F: -2.9%
26) CCc1ccc(CN(C)C(=O)C2CCC(=O)N(Cc3cccc(OC)c3)C2)nc1 (stereo unspecified)
  A: 1	B: -0.8	C: 4.8	D: -11%	E: 7%	F: -7.4%
32) CCc1cc2c(=O)c(-c3nc4ccccc4n3C)coc2c(CN2CCN(C)CC2)c1O
  A: 23	B: 8.8	C: 0.3	D: 0%	E: -7%	F: -14%

Source: PubChem (National Center for Advancing Translational Sciences (NCATS))
